Source: PubChem BioAssay
VDR inhibitor = Inhibitors of the vitamin D receptor (VDR): qHTS; VDR-SRC2-3 peptide fluorescence polarization, 2 h; Potency, µM, without a hit: max response, negative = inhibition, hits mostly inhibitors; 400,000 compounds, 0.93% hits; Vitamin D3 receptor (Homo sapiens), P11473; active means well fitted inhibition curve with a large enough effect; inconclusive means small, poorly fitted or top-dose-only effect, or another doubt; inactive means no such curve, though single readings can be large or run the other way; further: series mostly up to about 120 µM
Target sequence (P11473 whole entry, looked up): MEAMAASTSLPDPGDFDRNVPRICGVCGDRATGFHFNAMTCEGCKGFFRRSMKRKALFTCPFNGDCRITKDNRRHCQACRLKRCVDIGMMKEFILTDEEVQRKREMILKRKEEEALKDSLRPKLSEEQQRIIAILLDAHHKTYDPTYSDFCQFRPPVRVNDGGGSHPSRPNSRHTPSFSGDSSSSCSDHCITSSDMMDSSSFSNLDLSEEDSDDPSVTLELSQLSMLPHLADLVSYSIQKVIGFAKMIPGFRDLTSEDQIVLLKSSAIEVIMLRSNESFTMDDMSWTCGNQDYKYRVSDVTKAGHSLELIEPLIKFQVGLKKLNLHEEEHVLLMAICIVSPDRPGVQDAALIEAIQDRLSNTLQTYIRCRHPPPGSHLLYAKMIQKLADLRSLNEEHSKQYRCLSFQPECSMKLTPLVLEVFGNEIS
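After 23 nl compound addition and a short centrifugation, plates sat for 2 hours at ambient temperature; polarization of fluorescence then indicated loss of VDR binding to peptide SRC2-3.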
An asterisk follows results filed as active; ? = inconclusive; & = joins results of further samples. On the % scale 0 is the no-effect control and ±100 the full control effect; potency means the concentration at half of the fitted maximal effect.

Start of the data: the first five records (preview)
VDR inhibitor | SMILES
-5.5% | CSc1ccc(/C=C/C(=O)OCC(=O)NC2CC2)cc1
-11.1% | CCCCCOC(=O)CSc1nnc(-c2cc(OC)c(OC)c(OC)c2)o1
-6.1% | CC(C)(C)NCC(=O)N/N=C/c1ccc(OCc2ccccc2)cc1
-19.3% | CC(C)c1nc(CNC(=O)CC2C(=O)NCCN2Cc2cccc(F)c2F)cs1 (stereo not given)
-7.3% | O=C(NC1CCCCC1)N(Cc1nc2ccccc2c(=O)[nH]1)C1CCCCC1

This part in full, from the start:
VDR inhibitor | SMILES
-5.5% | CSc1ccc(/C=C/C(=O)OCC(=O)NC2CC2)cc1
-11.1% | CCCCCOC(=O)CSc1nnc(-c2cc(OC)c(OC)c(OC)c2)o1
-6.1% | CC(C)(C)NCC(=O)N/N=C/c1ccc(OCc2ccccc2)cc1
-19.3% | CC(C)c1nc(CNC(=O)CC2C(=O)NCCN2Cc2cccc(F)c2F)cs1 (stereo not given)
-7.3% | O=C(NC1CCCCC1)N(Cc1nc2ccccc2c(=O)[nH]1)C1CCCCC1
-2.1% | Cc1ccc(-n2c(=O)c3cccnc3n2CC(=O)Nc2cccc(C)c2C)cc1
-5.1% | CC(=O)N1CCc2c(sc3c2c(=O)n(-c2ccccc2C)c(=O)n3Cc2cccc(F)c2)C1
9.3% | N/C(=N\OC(=O)c1cccc2ccccc12)c1cccc([N+](=O)[O-])c1
6.3% | O=c1[nH]c(SCc2nc3ccccc3c(=O)n2-c2ccccc2)nc2ccccc12
-7.8% | Cc1cccc(NC(=S)N(Cc2cccs2)Cc2cc3cc(C)ccc3[nH]c2=O)c1
0.4% | O=C(c1ccccc1)c1ccc(OCCCN2CCCCC2)cc1
-15.6% | COc1ccccc1-n1c(C)nnc1SCC(N)=O
-10.6% | CC(C)C(OC(=O)Cn1nnc2ccccc21)C(=O)NC1CCCC1 (stereo not given)
-9.8% | COc1ccc(CNS(=O)(=O)NCc2ccc(OC)c(OC)c2)cc1OC
8.3% | O=C(NCC1CCCO1)C(c1cccs1)N(C(=O)c1ccc(CN2CCOCC2)o1)c1ccc(Cl)cc1 (stereo not given)
-2.6% | COc1ccc(NC(=O)c2cccc(Oc3ccccc3)c2)cn1
-1.5% | COCCNC(=O)C(c1ccc(C)o1)N(C(=O)c1snc(C(N)=O)c1N)c1ccc(C)c(C)c1 (stereo not given)
2.5% | O=c1[nH]cnc2nc(-c3ccccc3)c(-c3ccccc3)nc12
-9.0% | CCCN(CC(=O)Nc1cc(Cl)ccc1Cl)C(=O)CN1C(=O)C2CCCCC2C1=O (stereo not given)
15.2% | O=C(Nc1ccc(S(=O)(=O)N2CCCCCC2)cc1)c1ccc(Br)o1
-2.0% | Cc1ccc(N=Nc2ccc(O)c3ncccc23)cc1
0.4% | CC1=C(C(=O)OC2CCCCC2)C(c2ccc(F)cc2)NC(=O)N1 (stereo not given)
-3.8% | O=C(NC1CC2CCC(C1)N2Cc1ccccc1)c1cccc(F)c1 (stereo not given)
2.5% | Fc1ccc(C(c2nnnn2Cc2ccccc2)N2CCSCC2)cc1 (stereo not given)
3.4% | CC(=O)N1N=C(c2ccc(C(C)(C)C)cc2)OC1(C)C
-22.4% | O=C(CSc1ccc2nnc(-c3cccnc3)n2n1)NCc1ccco1
9.9% | CCc1noc(C)c1C(=O)N1CCCC(C(=O)c2cc(F)ccc2F)C1 (stereo not given)
4.0% | Brc1ccc(CSc2nnc(-c3cccnc3)o2)cc1
1.6% | O=C(c1ccccc1)n1ccn(-c2ccccc2)c1=S
13.7% | COc1cccc(-c2cc(C(=O)Nc3nc4ccccc4s3)c3ccccc3n2)c1
-14.5% | COc1cccc(CNC(=O)c2nnn(CC(=O)Nc3cc(C)ccc3C)c2N)c1
5.3% | O=C(NCCn1cccn1)C1CCC(=O)N(CCc2cccc(F)c2)C1 (stereo not given)
-15.4% | COCCNC(=O)c1cccc(C)c1[N+](=O)[O-]
-22.7% | COc1ccc(C(=O)N/N=C(\CCC(=O)O)c2ccc(C(C)(C)C)cc2)cc1OC
-7.9% | CCOC(=O)[C@@H]1[C@H]2COc3cc(OC)ccc3[C@@H]2N2C(=O)N(c3cccc(C)c3)C(=O)[C@@]12C
10.0% | COc1cc(OC)cc(-c2c(C#Cc3ccsc3)c3cc(-c4cnc(OC)nc4)ccc3n2C)c1
-11.6% | CC1=C(C(=O)Nc2ccccc2)C(c2ccccn2)n2nc(SCc3ccccc3Cl)nc2N1 (stereo not given)
-8.8% | O=C(N/N=C/c1ccc([N+](=O)[O-])o1)c1cc(-c2ccncc2)nc2ccccc12
12.0% | CSc1ccc(/C=N/n2nnnc2N)cc1
-5.6% | Cc1cccc(OCC(=O)NCC(=O)N/N=C/c2cc(Br)cc(Br)c2O)c1
-0.4% | COCCNC(=S)N/N=C/c1ccc(OCc2ccc(C(=O)OC)cc2)c(OC)c1
5.6% | Cc1csc(NC(=O)Cc2ccc(F)cc2)n1
4.6% | CC(C)Oc1ccc(CNC(=O)C2CCCN(S(=O)(=O)N3CCOCC3)C2)cc1 (stereo not given)
4.9% | CN(Cc1ccccc1)C(=S)NC(=O)C1CCCCC1
-11.9% | CCCOC(=O)c1ccc(Nc2c(C(=O)OCC)cnc3c(C)cc(Cl)cc23)cc1
10.4% | COC(=O)c1cccc(N(CC(=O)NC2CCCC2)C(=O)CNC(=O)c2cccs2)c1
13.2% | Cc1ccc(-c2nn3c(C)nnc3c3ccccc23)cc1S(=O)(=O)NCC(C)O (stereo not given)
-7.2% | CCN=C1S/C(=C\c2cc(Br)c(O)c(OC)c2)C(=O)N1CC
-11.6% | CC(=O)Nc1cc2c(cc1C(=O)C(C)C)OCCO2
-12.6% | CCC[C@H](NC(=O)[C@H](Cc1ccc(O[S+](=O)([O-])O)cc1)NC(=O)OC(C)(C)C)C(=O)NCC(=O)N[C@@H](Cc1c[nH]c2ccccc12)C(=O)N[C@@H](CCC)C(=O)N[C@@H](CC(=O)OCCc1ccccc1)C(=O)O
17.0% | Cn1cc(S(=O)(=O)c2ccc(Cl)cc2)c(=O)c2cc(F)c(N3CCCC3)cc21
-12.2% | COc1nnc(-c2ccc(N3CCCCC3)c(NC(=O)c3ccc(C)cc3)c2)c2ccccc12
-8.9% | Cc1nc2c(c(C)nn2-c2ccccc2)c(C)c1CCC(=O)Nc1ccc(CN2CCCC2)cc1
9.3% | CCn1c2ccccc2n2c(=O)c(=O)n(CC(=O)Nc3ccc(C(C)C)cc3)nc12
2.1% | Cc1ccc(C)c(N2N=C(C(=O)OCC(=O)N(C)c3ccccc3)CCC2=O)c1
8.1% | CCN1CCc2c(sc(NC(=O)c3ccc(S(=O)(=O)N(CCOC)CCOC)cc3)c2C(N)=O)C1
17.0% | CCn1c(COc2ccccc2)nnc1SCc1ccc(C#N)cc1
20.5%&6.0% | COc1ccc(N(CC(=O)N2CCN(c3ccccc3F)CC2)S(=O)(=O)c2c(C)n[nH]c2C)cc1
4.0% | O=c1c(-c2ccccc2)nc2cncnc2n1Cc1ccccc1Cl
18.0% | COc1ccc(OCc2cnc(Cl)s2)cc1

(list continues)
VDR inhibitor | SMILES
-0.8% | CC(C)(C)OC(=O)N1CC(O)CC1C(=O)OCC(=O)c1ccc(Cl)cc1 (stereo not given)
2.4% | CCC(C)[C@H](NC(=O)c1cc2cc(Cl)ccc2n1C)C(=O)N1CCC[C@H]1C(=O)O (stereo not given in full)
-1.9% | O=C(/C=C\Nc1ccccc1Br)c1ccc2c(c1)OCO2
-13.6% | CC#CC(=O)N1CCC(CCC(=O)N(C)Cc2ccccc2)CC1
13.4% | COc1ccc(Oc2ncc3nc(-c4cn(C)c5ccccc45)c(=O)n(CCC#N)c3n2)cc1
1.1% | O=C(Nc1nc(-c2cccs2)cs1)c1ccc(Cl)cc1
-4.2% | Cc1ccc(S(=O)(=O)NCCCn2ccnc2)cc1
-5.7% | Cc1cc(C)cc(OCc2nnc(SCC(=O)OC3CCCCC3)o2)c1
5.5% | CCOc1ccc(NC(=O)NC2(C(=O)NCc3ccco3)CCCCC2)cc1
-11.1% | O=C(Nc1ccccc1O)c1csc2c1CCCC2
-1.8% | O=C(NCc1ccc2c(c1)OCO2)c1ccc(-c2ccc(Cl)cc2)o1
4.4% | O=C(O)c1ccncc1
-5.9% | CC(C(=O)N1CCN(Cc2ccccc2)CC1)n1ncn2cccc2c1=O (stereo not given)
-26.5% | OCC1OC(n2ccc3c(NO)ncnc32)C(O)C1O (stereo not given)
-17.8% | O=C(CCC(=O)N1CCN(c2cccc(Cl)c2)CC1)N1CCN(c2ccccc2)CC1
-19.8% | C/C(=N\NC(=S)NC1CCCCC1)c1cccc(Br)c1
-4.2% | CCN(c1ccccc1)S(=O)(=O)c1ccc(C(=O)N2CCN(c3ccccc3)CC2)cc1
-8.5% | CN(C)c1ccc(/C=N/n2c(-c3cccnc3)n[nH]c2=S)cc1
14.9% | NC(=O)c1nsc(C(=O)N(CCCN2CCOCC2)C(C(=O)NC2CCCCC2)c2ccc(Cl)cc2)c1N (stereo not given)
-7.9% | O=C(CCN1C(=O)c2ccccc2S1(=O)=O)Nc1ccc2c(c1)OCCO2
-13.0%&-13.5% | CCCn1c2ccc(C)cc2c2nnc(SCCN3CCCCC3)nc21
39.8µM* | CN(C)c1ccc(-c2cncnc2NCCN2CCOCC2)cc1
-10.1% | CC(=O)Nc1cccc(OCC(=O)Nc2ccccc2)c1
-13.3% | CCOc1ccc(Nc2cc3n(c(=O)n2)CCc2cc(OC)c(OC)cc2-3)cc1

Gathered by group: the entries above containing a cyano group
VDR inhibitor | SMILES
17.0% | CCn1c(COc2ccccc2)nnc1SCc1ccc(C#N)cc1
13.4% | COc1ccc(Oc2ncc3nc(-c4cn(C)c5ccccc45)c(=O)n(CCC#N)c3n2)cc1

(continued)
VDR inhibitor | SMILES
-5.0% | Cc1cc(C)c2c(CCl)cc(=O)oc2c1
? | Cc1ccc(/C=c2\sc3nc(-c4cccnc4)nn3c2=O)cc1
2.7% | CCCc1cc(=O)[nH]c(SCc2ccc(Cl)cc2)n1
-3.3% | O=C(C1CC1)N1CCN(c2ccc([N+](=O)[O-])cc2-n2cccc2)CC1
5.4% | CCSc1nncn1/N=C/c1ccc(OC)c(OC)c1
-1.6% | c1ccc(CCc2nc(-c3ccccc3)no2)cc1
9.8% | CC(C)C(c1nnnn1CC1CCCO1)N1CCN(C2CCCC2)CC1 (stereo not given)
6.2% | COc1ccc(-c2c(-c3cc(OC)cc(OC)c3)n(C)c3ccc(-c4cnc(N)nc4)cc23)cc1
3.7% | CCCCS(=O)(=O)N1CCCC(C(=O)Oc2ccccc2)C1 (stereo not given)
-6.8% | CN(C)/C=N/c1sc2c(c1C#N)CCCCC2
-3.7% | COC(=O)c1cc(OC)c(OC)cc1NC(=O)Cc1ccccc1[N+](=O)[O-]
-5.1% | C/C(=N\Nc1nc(C)cc(=O)[nH]1)C1CC1
-11.1% | Cc1ccc(C(=O)Oc2cc(C)n(C)c(=O)c2)cc1
-4.7% | NC(=O)N1CC(O)CC1C(=O)Nc1ccc(Cl)c(Cl)c1 (stereo not given)
-12.2% | OC1C2CCC(C2)C1CN1CCOCC1 (stereo not given)
3.7% | CCOC(=O)N1CCN(S(=O)(=O)c2cc3c(cc2C)NC(=O)CO3)CC1
-24.5% | CCN(CC(=O)NC1CCS(=O)(=O)C1)S(=O)(=O)c1ccc2ccccc2c1 (stereo not given)
-4.9% | CCN(CC)S(=O)(=O)c1ccc(OC)c(NC(=O)c2cc(C)on2)c1
-16.4% | CCc1cccc(CC)c1NC(=S)N(CCN(C)C)C(C)c1cccnc1 (stereo not given)
-1.4% | COc1ccc2oc(=O)c(-c3nc(C)cs3)cc2c1
-10.6% | CC(=O)N1CCN(C(=O)c2cc3c(s2)CCC(C)C3)CC1 (stereo not given)
-18.6% | CNC(=S)N/N=C/c1c(Cl)cccc1Cl
-2.1% | CC(C)=CCc1cc(-c2oc3cc(O)cc(O)c3c(=O)c2O)ccc1O
-10.5% | Fc1ccc(C2=NOC(c3nnc(-c4ccccc4)o3)C2)cc1 (stereo not given)

5 compounds from above, sorted by SMILES length, rising:
VDR inhibitor | SMILES
-5.5% | CSc1ccc(/C=C/C(=O)OCC(=O)NC2CC2)cc1
-13.6% | CC#CC(=O)N1CCC(CCC(=O)N(C)Cc2ccccc2)CC1
9.8% | CC(C)C(c1nnnn1CC1CCCO1)N1CCN(C2CCCC2)CC1 (stereo not given)
-2.1% | CC(C)=CCc1cc(-c2oc3cc(O)cc(O)c3c(=O)c2O)ccc1O
9.3% | CCn1c2ccccc2n2c(=O)c(=O)n(CC(=O)Nc3ccc(C(C)C)cc3)nc12

Additional records
VDR inhibitor | SMILES
1.5% | COC(=O)N/N=C/c1cc(N=Nc2ccccc2)ccc1O
1.2% | Cc1ccc2nc(NNC(=O)c3ccc4c(c3)OCCO4)sc2c1
2.5% | COc1ccc(-c2ccnc(SCC(=O)Nc3ccccn3)n2)cc1
-10.6% | COc1ccc(OC)c(Nc2nc(N)nc(CSc3nnc(N)s3)n2)c1
-0.1% | CCOc1ccc(-c2nnc(SCc3nc4ccccc4[nH]3)n2N)cc1
18.6% | COc1ccc(CNC(=O)Cn2c(SCC(=O)Nc3ccc(OC)cc3)nc3ccccc32)cc1
? | Cc1cccc(N(CC(=O)NC(C)C)C(=O)CCC(=O)Nc2ccccn2)c1
4.5% | CCC(C)NC(=O)CSc1nc2c(sc3ccccc32)c(=O)n1Cc1ccccc1Cl (stereo not given)
-13.2% | CCOc1ccc(N)cc1OC
-4.2% | COc1ccc(N2CC(C(=O)N[C@@H](C)C(=O)NCCc3ccccc3)CC2=O)cc1 (stereo not given in full)
-7.0% | c1ccc(Cn2c[n+](Cc3ccccc3)c3ccccc32)cc1
-6.9% | CS/C(=N/S(=O)(=O)c1ccc(C)cc1)c1ccccc1
8.3% | COC(=O)c1ccc(CNC(=O)Cn2cnc(C(=O)Nc3ccc(C)c(C)c3)n2)cc1
-6.4% | CC1(C)CC(=O)C(C2C3=C(CC(C)(C)CC3=O)Oc3ccc4ccccc4c32)C(=O)C1 (stereo not given)
11.4% | Cc1ccc2cc(C)c(N3CCC(C)CC3)nc2c1

A portion of the library; rates above refer to the full screens.
